Compound activity from PubChem BioAssay.
BJeLR viability – kills HRASV12-expressing BJeLR cells; AID 1554; 300,000 tested, 0.17% active; inhibition, % (test concentration not listed); BJeLR (HRASV12) viability, CellTiter-Glo ATP luminescence, 48 h; reference of the scale not given here;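 active = replicate mean above 50%; inconclusive = above 50% but judged a plate artefact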;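 also: 50 nL library stock added to about 25 µL; numbers are from one replicate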
RN4220 kill – kills Staphylococcus aureus RN4220 | 330,000 tested, 0.33% active | inhibition, % (test concentration not listed) | S. aureus RN4220 growth, OD600, 16 h;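 active = z-score of -3 or lower and OD600 up to 0.18 on both plates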;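 also: plate controls were untreated cells for no effect and reference antibiotic for full effect; stock transfer was 100 nL into about 80 µL; one replicate is shown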
Mtb hypoxia rep – reduces hypoxia-regulated biosensor signal in M. tuberculosis | M. tuberculosis hypoxia-regulated fluorescent reporter, fluorescence | 300,000 tested, 0.1% active | fluorescence inhibition, % (no concentration beside the values);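 active = 35 to 45% if threefold the growth effect, above 45% if 1.5-fold the growth effect; inactive = the rest, general growth blockers included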;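 also: wells of about 50 µL received 100 nL stock; 0% = vehicle wells and 100% = reference inhibitor wells; whole bacteria with a GFP reporter of the hypoxia response; strong numbers were not always called active; many hits fall short of the cut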
ugtP null kill – growth inhibition of S. aureus ugtP deletion strain; growth inhibition, % (no concentration beside the values); S. aureus RN4220 ugtP deletion, OD600 growth, 16 h; some inactives read as strong as hits; 330,000 tested, 0.54% active;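 active = z-score under -3 and OD600 up to 0.15 on both plates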;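 also: plate controls were untreated wells for no effect and antibiotic for full effect; wells of about 80 µL received 100 nL stock; the first replicate is given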
Autofluor counter – counter-screen for toxin protease inhibitors: compound fluorescence | compound autofluorescence counterscreen, microsphere flow cytometry; active compounds read high | fluorescence intensity (test concentration not listed) | 360,000 tested, 3.1% active;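 active = at least 3 SD above the mean of all compounds, about 16000 in these data; inconclusive = too few beads counted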;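 also: 100 nL of 1 mM stock went into each well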
PrP 5UTR inh – inhibition of PrP 5' UTR reporter expression; cell-based PrP 5' UTR mRNA reporter, plate reader; 340,000 tested, 0.35% active; AID 488862; inhibition, % (concentration not given with the values);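 active = every replicate at 50% or more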;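 also: 0 = median of the neutral control wells; tested in H4 reporter cells; numbers are from one replicate; inactives centre near -14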
Mtb hypoxia rep growth – also measured in Mtb hypoxia rep; calls as there; growth inhibition, %; measured here: M. tuberculosis growth (absorbance);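 0% = vehicle and 100% = reference antibiotic; read after six days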
* = called active by the depositor; ? = inconclusive; nt = not tested or not shown; & = joins results of further samples. Outcome played no part in choosing rows (roughly 4% active in at least one column).

molecule	BJeLR viability	RN4220 kill	Mtb hypoxia rep	Mtb hypoxia rep growth	ugtP null kill	Autofluor counter	PrP 5UTR inh
C=CCOC(=O)C1=C(C)NC(SCC(=O)Nc2nccs2)=C(C#N)C1c1ccc(Cl)cc1 (stereo not drawn)	3	-7.2	9	9	-7	4721	-16
Cc1ccc(-c2n[nH]c(=S)n2/N=C/C=C\c2ccccc2[N+](=O)[O-])cc1	-1	nt	nt	nt	nt	2651	-1
COc1cccc(Cn2nnc(C(=O)NCc3ccc(F)cc3)c2N)c1	-1	1.4	nt	nt	3	5110	-3
CCOC(=O)c1cc2cc(OC)ccc2[nH]1	3	1.8	nt	nt	-7	2402	-95
Cc1ccc(C)c(NS(=O)(=O)c2ccc(OCC(=O)N3CCOCC3)cc2)c1	8	-5.1	6	10	-15	3056	-10
Cc1ccc(C(=O)O)cc1NC(=O)C1=CSCCO1	2	0.5	-11	0	0	5301	8
Cc1ccc(NC(=O)CSc2nnc(Cc3csc(C)n3)o2)cc1	nt	-3.8	-19	1	-6	5564	-3
Cc1c(N=C/C=C/c2ccccc2)c(=O)n(-c2ccccc2)n1C	10	4.2	5	4	-1	11173	-5
Cc1cccc(C)c1N1C(=O)CN(Cc2ccccc2)C1=S	0	13	5	5	3	3243	-23
CC1CC(CC(=O)NC(=S)Nc2ccccc2Cl)C(=O)O1 (stereo not drawn)	2	1.5	-5	-1	2	2369	-11
COc1ccc(-c2nn(CC(=O)Nc3ccc(Cl)c(Cl)c3)c(=O)c3ccccc23)cc1	8	0.4	nt	nt	9	3035	-6
CCC(CC)C(=O)N1CCN(c2ccccc2)CC1	3	5.5	3	11	10	4456	-68
Cc1cccc(CCNC(=O)CN(C)S(=O)(=O)c2cnc[nH]2)c1	-2	0.8	-1	-3	0	2660	-4
COc1ccc(C2CC(c3ccc(C)o3)=NN2C(C)=O)cc1 (stereo not drawn)	-2	4.3	8	0	0	2635	-54
COc1ccc(-n2nc(C)c3c(=O)c4c([nH]c32)CCCC4)cc1	3	4.2	15	29	0	3700	-11
COC(=O)c1cnc(Nc2ccc(Cl)cc2)c([N+](=O)[O-])c1	-3	2.1	5	16	-1	nt	-12
CCc1ccccc1N1C[C@@]23C=C[C@@H](O2)C(C(=O)OCC(C)C)[C@H]3C1=O (stereo partly drawn)	3	4.1	5	0	3	9626	nt
Nc1c(C(=O)N2CCCCC2)sc2nc3c(cc12)CCCC3	-10	3.9	7	9	2	3795	-59
COc1ccc(/C(C)=N/NC(=O)CN(c2ccc(OC)cc2)S(=O)(=O)c2ccccc2)cc1	5	nt	nt	nt	nt	3742	-7
COc1cc(=O)oc(CCC(C)O)c1C (stereo not drawn)	nt	0.5	1	2	6	3755	-10
Cc1c(NS(=O)(=O)c2ccc3c(c2)NC(=O)CC(=O)N3)cccc1[N+](=O)[O-]	-5	1.2	-1	1	2	6238	-28
C#CCOC(=O)Nc1cnccc1C(F)(F)F	-3	3.2	15	4	3	5730	-13
CC(=O)Nc1ccc2c(c1)N(S(=O)(=O)c1cccs1)CCC2	5	5.6	-1	0	-8	nt	-22
Cc1ccc(CN2CCN(N=Cc3sccc3C)CC2)c(C)c1	nt	5.9	-6	1	48	nt	nt
Cc1ccc(Oc2coc3cc(O)ccc3c2=O)cc1	-7	9.4	-5	5	15	3502	-19
O=C1CCCN1CCCNC(=S)Nc1ccc(F)cc1	3	5.5	8	2	5	1956	2
CCOc1ccc(C2C(C(=O)c3ccco3)=C(O)C(=O)N2CCN(C)C)cc1 (stereo not drawn)	-3	5.0	-12	0	2	nt	nt
COC(=O)c1[nH]c(C)c(/C(O)=C2\C(=O)C(=O)N(CCN(C)C)C2c2cccc(OC)c2OC)c1C (stereo not drawn)	-11	2.9	3	5	6	9911	-21
CCCn1cnc2sc(CC)cc2c1=O	6	6.0	8	1	-1	10557	-48
O=C1NCCN/C1=C\C(=O)c1ccc(Cl)cc1	2	4.4	-1	0	8	4319	nt
CCOC(=O)C1C(=O)CC(C)(O)C(C(=O)OCC)C1c1ccco1 (stereo not drawn)	5	2.9	4	-3	6	4026	-8
C=CCOC(=O)C(C(=O)Cc1ccccc1)c1ccccc1 (stereo not drawn)	nt	2.4	17	13	3	3652	-16
Cc1cc(C)cc(NC(=S)NCCN(C2CCCCC2)C2CCCC2)c1	-4	1.3	-3	-10	-8	4502	-10
CSc1nc(-c2ccc(Cl)cc2)nc(N)c1C#N	-14	5.2	9	-4	1	3574	nt
CCN(CC)CCCC(C)n1c2nc(=O)[nH]c(=O)c-2nc2cc(Cl)ccc21 (stereo not drawn)	nt	4.2	-26	9	-1	3965	-2
COc1cc(CN2CCCC(C(=O)c3ccc4c5c(cccc35)CC4)C2)cc(OC)c1O (stereo not drawn)	9	4.3	16	5	4	3687	-12
Cc1nnc(NC2=NCCC2)s1	4	0.1	2	-4	4	2790	-1
COc1ccc(-n2ncc3c2CC(C)(C)CC3NC(=O)CCN2CCCCC2=O)cc1 (stereo not drawn)	-1	-3.9	0	9	-4	4861	8
CN(C)S(=O)(=O)c1ccc(N2CCCC2)c(C(=O)N2CCN(S(=O)(=O)c3ccc(F)cc3)CC2)c1	1	1.6	-5	4	2	4492	-2
COCC(=O)OCC(=O)Nc1cc([N+](=O)[O-])ccc1Cl	nt	6.2	17	10	15	3332	-23
COc1ccc([C@H]2CC(=O)C=C(c3ccc(OC)c(OC)c3)C2)cc1	nt	22	10	8	2	3993	0
COc1ccc(OC)c(NC(=O)CSc2nnc(-c3ccco3)o2)c1	1	3.7	4	3	10	4320	-4
CCc1sc(C(=O)Nc2ccc3c(c2)OCO3)cc1C	nt	2.9	3	9	-4	3833	-74
O=C(N/N=C1\CC(c2ccccc2)Oc2ccccc21)c1ccc(O)cc1 (stereo not drawn)	1	nt	nt	nt	nt	3908	-19
O=C(CCNC(=O)Cn1ccc2ccccc2c1=O)NCc1ccccn1	-2	1.1	-4	-3	2	6032	-17
COc1cc(CC(=O)OCC(=O)c2c[nH]c3ccccc23)cc(OC)c1OC	nt	4.8	5	-3	4	10228	-14
Cn1c2ccccc2c2cc(C(=O)NNS(=O)(=O)c3ccc(F)cc3)sc21	-2	1.2	8	10	-3	4195	-17
CCC(C)[C@H](N)c1cn([C@@H](Cc2ccc(O)cc2)C(=O)N2CCNCC2)nn1 (stereo partly drawn)	-6	nt	nt	nt	nt	3018	-22
CCn1c(=S)sc2c(=O)n(CC(=O)Nc3cccc(Br)c3)c(C)nc21	-10	42	6	5	1	6006	-30
O=C(CCc1nnc(CCCc2ccccc2)o1)NCCCC1CCCC1	6	3.3	2	12	1	2918	-52
CCC(=O)OCC(=O)[C@@]1(OC(=O)CC)C(C)CC2C3CCC4=CC(=O)C=C[C@]4(C)[C@@]3(Cl)C(O)C[C@@]21C (stereo partly drawn)	nt	5.0	-1	0	-6	nt	nt
COc1ccc(C(=O)NNc2cc(C)nc(NNC(=O)c3ccc(OC)cc3)n2)cc1	4	1.4	10	0	1	3484	-8
O=C(CSc1nnc(Cc2ccccc2)o1)Nc1ccccc1	nt	4.3	1	7	2	4001	-69
CN1CCN(C(=O)c2cccc(S(=O)(=O)N3CCCC3)c2)CC1	nt	5.3	3	5	6	8877	-12
COC(=O)c1cc2c(n(-c3ccccc3)c1=O)CCCC2=O	nt	3.0	-7	0	4	3964	-20
O=C1C=C(Nc2cccc(O)c2)CC(c2ccco2)C1 (stereo not drawn)	0	6.5	17	5	-6	9635	-35
CCCc1cc(C(=O)Nc2sc3c(c2C(=O)OCC)CCCC3)no1	0	-11	7	9	-2	5372	-25
O=C(NN=C1CCN(Cc2ccccc2)CC1)c1cccc(S(=O)(=O)Nc2ccccc2Cl)c1	14	nt	nt	nt	nt	9185	-14
Cc1ccc2c(c1)N(CC(=O)N1CCCCCC1)C(=O)C(C)O2 (stereo not drawn)	2	2.2	-5	-5	3	3871	-15
COCC1CCCN(C(=O)c2cc(COc3ccc(C(C)=O)cc3)on2)C1 (stereo not drawn)	-9	0.4	8	-5	-3	6246	-47

(more compounds)
molecule	BJeLR viability	RN4220 kill	Mtb hypoxia rep	Mtb hypoxia rep growth	ugtP null kill	Autofluor counter	PrP 5UTR inh
Cc1noc(C)c1S(=O)(=O)N(CC(=O)N1CCn2c1nc1ccccc12)c1ccc(C(C)C)cc1	-3	4.6	nt	nt	6	5010	-6
Cc1cc(C)cc(NC(=O)c2sc3nc4n(c(=O)c3c2C)CCC4)c1	-7	3.6	13	6	4	4406	-19
CC(C)CN(C(=O)CSc1nnc(C2CC2)n1-c1ccccc1)C1CCS(=O)(=O)C1 (stereo not drawn)	nt	5.9	8	0	8	?	nt
CC(=O)Nc1ccc(S(=O)(=O)NC(C)c2ccncc2)cc1 (stereo not drawn)	nt	5.9	0	1	5	3264	-12
CCOC(=O)C1CCN(S(=O)(=O)c2ccc(OC)c(C(=O)N3CCCCCC3)c2)CC1	-10	-1.0	-5	-9	1	5395	-11
N/C(=N\OC(=O)CCCc1ccccc1)c1cccnc1	14	-3.8	-1	0	-7	2162	-10
Cc1ccc(NCc2cccnc2)c(Br)c1	-8	3.4	9	2	-1	1863	-8
CCCC1CCC(=C(C#N)C(N)=O)CC1 (stereo not drawn)	-19	5.4	8	3	6	7879	-14
OC(CN1CCN(c2ccccn2)CC1)Cn1c2ccccc2c2ccccc21 (stereo not drawn)	6	-1.0	7	1	-13	5780	-23
Cc1c2cnn(CC(=O)N3CCC4(CC3)OCCO4)c(=O)c2c(C)n1Cc1ccccc1F	-3	3.0	2	-2	-17	2420	-10
C=CCC(CC(=O)N(CCO)Cc1ccccc1)C(=O)NCC(OC(=O)C(CC=C)Cc1ccc(F)cc1)c1ccccc1 (stereo not drawn)	nt	-7.8&-14&-0.5&-11	5&-7&10&9	1&2&0&12	9&2&-25&-22	nt	nt
CCOC(=O)c1cc2c(C)n(-c3ccc(C)cc3)c(C)c2ccc1=O	5	2.5	12	8	-6	22981*	-60
Cc1ccccc1-c1nc(CN2CCC(C(=O)NCCC3=CCCCC3)CC2)c(C)o1	1	1.1	-4	-4	-19	10832	-26
COc1ccc(NC(=O)CN2C(=O)N(C)Cc3ccccc32)c(C)c1	-3	6.5	8	6	6	2027	-7
Cc1cc(NC(=O)C2CCCN2C(=O)Nc2c(C)cccc2C)ccc1-n1cnnn1 (stereo not drawn)	5	-12	7	8	-3	2776	-4
O=c1c2ccccc2cnn1-c1nc2ccccc2[nH]1	82*	2.3	2	6	6	2718	92*
Cc1c(NC(=O)c2ccccc2NS(=O)(=O)c2ccc(Br)cc2)c(=O)n(-c2ccccc2)n1C	8	4.1	5	2	1	8961	-26
Cc1cc(NC(=O)CSCc2ccccc2C)no1	3	6.5	11	5	5	3984	-3
O=C(Cn1c(CO)nc2ccccc21)NCCc1ccc(F)cc1	-1	9.1	-4	-9	4	3547	-3
Cc1oc2c(c(C)cc3oc(=O)c(CC(=O)N[C@@H](C)C(=O)O)c(C)c32)c1C	4	2.6	-1	3	4	3536	-33
C=CCNC(=O)c1sc(-c2ccccc2)nc1C	-2	2.6	-2	12	-2	3498	-33
CCCNc1nc2ccccc2n2c(C)nnc12	-5	5.1	13	3	7	3098	-8
O=C(c1ccoc1)N1CCC2(CC1)Oc1ccc(F)cc1C(=O)C21CC(c2ccc(Cl)cc2)=NO1 (stereo not drawn)	3	5.9	3	7	4	3758	-2
CN(CCC#N)C(=O)c1cc2c(Cl)nc3ccccc3c2s1	-1	0.5	5	7	14	3557	2

Ordered by SMILES length (low to high): 3 of the compounds above
molecule	BJeLR viability	RN4220 kill	Mtb hypoxia rep	Mtb hypoxia rep growth	ugtP null kill	Autofluor counter	PrP 5UTR inh
CCCNc1nc2ccccc2n2c(C)nnc12	-5	5.1	13	3	7	3098	-8
Cc1oc2c(c(C)cc3oc(=O)c(CC(=O)N[C@@H](C)C(=O)O)c(C)c32)c1C	4	2.6	-1	3	4	3536	-33
O=C(c1ccoc1)N1CCC2(CC1)Oc1ccc(F)cc1C(=O)C21CC(c2ccc(Cl)cc2)=NO1 (stereo not drawn)	3	5.9	3	7	4	3758	-2
